Compound activity: PubChem BioAssay, National Center for Advancing Translational Sciences (NCATS)
miR-21 reporter: qHTS Assay for Modulators of miRNAs and/orActivators of miR-21; AID 2288, 2010; Potency, µM (titrated, usually from 38.3 µM), for inactives: at the top dose reporter change, positive = more light; HeLa miR-21 FLuc reporter, luciferase, 48 h; 340,000 tested, under 10 active; active = well fitted rising curve with a large enough effect; inconclusive = small, poorly fitted or top-dose-only effect; inactive = no such curve, though single readings can be large or run the other way;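 further: % of control where 0% means no effect; miR-21 action dims this reporter so a rising signal means less miR-21 action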
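Luminescence from a firefly luciferase reporter carrying a miR-21 binding site downstream, stably expressed under a CMV promoter in HeLa cells that make miR-21 endogenously, reports miRNA modulation after 48 h compound exposure up to approximately 40uM final.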
Rango release inh: qHTS Assay for Inhibitors of RanGTP induced Rango (Ran-regulated importin-beta cargo) - Importin beta complex dissociation | Snurportin-1 (Homo sapiens) + GTP-binding nuclear protein Ran (Homo sapiens) + Importin … | Biochemical FRET Rango-importin beta, RanGTP-induced dissociation | Potency, µM (doses to about 46.1 µM), without a hit: at the highest dose activity change, negative = inhibition | 340,000 compounds, 0.071% hits | AID 540253, 2011; active means falling FRET ratio curve, often poorly fitted, with flat reads before Ran was added; inconclusive means other falling curves, or compound fluorescence or quenching; inactive means flat or rising ratio curve;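 further: potency means the concentration at half of the fitted maximal effect; % of control where 0% means no effect; nearly all actives have a fitted effect of over 45% in size; -100% = wells without RanGTP and RCC1; the record marks most hits as doubtful in a second field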
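Rango FRET biosensor (snurportin-1 IBB flanked by N-terminal EYFP and C-terminal CFP10) at 0.1 uM, with 0.25 uM importin beta in PBS, 1mM DTT, 0.02% Tween-20, 0.1% BSA. 0.6 uM Ran, 2mM GTP and 0.2 uM RCC1 were then added for 45 min at room temperature. Inhibition read as loss of FRET rise.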
GLA inh pH 4.5: qHTS Assay for Inhibitors of Human alpha-Galactosidase at pH 4.5; activity change, negative = inhibition, % at 105 µM; AID 1467, 2008; Alpha-galactosidase A (Homo sapiens), P06280; 230,000 tested, under 10 active; purified enzyme, 4-MU-alpha-Gal fluorescence, pH 4.5; inconclusive = small, poorly fitted or top-dose-only inhibition, or a rising curve; inactive = flat fitted curve, though single readings scatter; no compound was filed as active;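 further: 0% = full activity with enzyme and -100% = basal without enzyme; dose as in the result columns while the protocol names 77 µM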
Rango complex inh: qHTS Assay for Inhibitors of Rango (Ran-regulated importin-beta cargo) - Importin beta complex formation. Importin subunit beta-1 (Homo sapiens), Q14974. Rango CFP/YFP FRET sensor + importin beta, 45 min. Potency, µM (highest dose often 92.2 µM), for inactives: at the highest dose inhibition of complex formation. 340,000 compounds, 0.031% hits; active = rising FRET ratio curve, often small or poorly fitted; inconclusive = mostly compound fluorescence or quenching in the first reads; inactive = flat curves in all reads;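 further: potency means the concentration at half of the fitted maximal effect; 0% = DMSO wells and 100% = buffer wells lacking importin beta; nearly all actives have a fitted effect of over 15% in size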
Target sequence (Q14974 whole entry, looked up): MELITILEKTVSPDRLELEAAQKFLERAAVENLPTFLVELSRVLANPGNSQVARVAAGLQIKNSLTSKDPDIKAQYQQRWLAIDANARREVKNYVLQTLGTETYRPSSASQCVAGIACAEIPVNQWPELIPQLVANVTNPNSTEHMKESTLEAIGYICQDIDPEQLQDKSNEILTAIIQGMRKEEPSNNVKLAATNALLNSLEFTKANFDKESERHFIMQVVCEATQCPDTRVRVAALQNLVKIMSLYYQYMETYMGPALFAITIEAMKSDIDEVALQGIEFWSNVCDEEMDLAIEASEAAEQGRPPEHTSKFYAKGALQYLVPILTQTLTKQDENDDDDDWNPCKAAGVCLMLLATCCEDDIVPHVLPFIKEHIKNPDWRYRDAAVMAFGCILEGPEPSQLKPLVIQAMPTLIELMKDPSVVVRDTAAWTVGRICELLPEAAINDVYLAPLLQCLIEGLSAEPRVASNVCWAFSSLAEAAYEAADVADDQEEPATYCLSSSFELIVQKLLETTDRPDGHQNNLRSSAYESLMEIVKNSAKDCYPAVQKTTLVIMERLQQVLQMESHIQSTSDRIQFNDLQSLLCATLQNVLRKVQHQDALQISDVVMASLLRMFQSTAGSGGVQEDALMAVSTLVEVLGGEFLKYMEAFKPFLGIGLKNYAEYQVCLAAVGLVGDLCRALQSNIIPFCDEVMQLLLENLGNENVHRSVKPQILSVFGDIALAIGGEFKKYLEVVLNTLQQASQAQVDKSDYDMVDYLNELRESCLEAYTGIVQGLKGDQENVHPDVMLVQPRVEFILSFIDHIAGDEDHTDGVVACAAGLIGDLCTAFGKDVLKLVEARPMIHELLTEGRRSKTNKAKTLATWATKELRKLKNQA
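FRET biosensor Rango (snurportin 1 IBB between N-terminal EYFP and C-terminal Cerulean), 50 nM in PBS/1 mM DTT/0.02% Tween-20/0.1% BSA, preincubated 5 min RT with compound; 0.125 microM importin beta added, 45 min RT, CFP/YFP FRET ratio read.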
Numbers without * were called inactive; ? = inconclusive; . = no result given; [ ] = another dose, or the depositor's remark. Some of the compounds tested; the hit share may differ from the screen's.

Under each structure – miR-21 reporter, Rango release inh, GLA inh pH 4.5, Rango complex inh
> O=c1c2ccccc2nc(SCc2nnc(-c3ccccc3)o2)n1-c1ccccc1
→ -3%, -7%, -6, -1.2%
> COC(=O)c1ccccc1NC(=O)N1c2ccccc2Sc2ccccc21
→ 12%, 0%, ?, 2.4%
> CC(=O)NC(CC(=O)N(C)C1CCCCC1)c1ccccc1 (stereo unspecified)
→ -1%, -4%, ., -0.9%
> CN(Cc1ccncn1)C(=O)C1CCC(=O)N(Cc2cccc(C(F)(F)F)c2)C1 (stereo unspecified)
→ 1%, 1%, ., 0.9%
> CON1C(=O)C(=O)N(OC)C(C)(C)C1(C)C
→ 1%, 7%, 0, 4.3%
> COc1ccc([C@H]2CC(=O)C=C(c3ccc(Br)c4ccccc34)C2)cc1
→ ., 17%, ., 2.7%
> CC1CN(S(=O)(=O)c2ccc(NC(=O)c3ccco3)cc2)CC(C)O1 (stereo unspecified)
→ 2%, 7%, -8, 2.3%
> Oc1cc2c(c(Cl)c1O)CCNCC2c1ccccc1 (stereo unspecified)
→ ., -2%, -9, ?
> Cc1ccc(S(=O)(=O)N(CC(=O)N2CCOCC2)CC(=O)N2CCOCC2)cc1
→ -14%, -10%, 6, 2.3%
> COc1ccc(/C=N/Nc2ncnc3sc4c(c23)CCCC4)cc1OC
→ -15%, -5%, -4, 0.3%
> CCC(C)(C)c1ccc(OCCCC[n+]2cccc(C)c2C)c(C(C)(C)CC)c1
→ ?, 8%, -8, 7.5%
> COc1cc(OC)cc(C(=O)NC(C)c2ccc(Br)cc2)c1 (stereo unspecified)
→ 1%, -15%, 6, 0.7%
> Cc1cc(N/N=C(/CCC(=O)O)C(=O)O)nc2ccccc12
→ -1%, -11%, 0, -0.4%
> CC(C)CCOP(=O)(c1ccccc1)c1ccccc1
→ -7%, 2%, 2, 1.1%
> COCCCn1c(=O)c2ccccc2n(CC(=O)N2CCCc3ccccc32)c1=O
→ 7%, -17%, ., -0.8%
> Cn1c(N)c(S(=O)(=O)NCc2ccc(F)cc2)c(=O)n(C)c1=O
→ 0%, 1%, ., -1.8%
> O=C(NCC1CCCO1)Nc1cc(Cl)cc(Cl)c1 (stereo unspecified)
→ -28%, -12%, 3, 3.2%
> CCN(CCCNC(=O)c1ccc2c(c1)NC(=O)CN2C)c1cccc(C)c1
→ 25%, ?, ., ?
> Brc1ccc(-c2ncc3ccccn23)cc1
→ -62%, 11%, 2, 1.4%
> COCCn1c(C)cc(C(=O)COc2nc3ccccc3nc2C)c1C
→ -3%, -9%, -1, 1.3%
> Cn1nc(C(=O)Nc2ccc3c(c2)OCO3)c2ccccc2c1=O
→ -12%, -1%, ., -4.6%
> Cc1ccc(S(=O)(=O)N2CCOCC2)cc1C(=O)OCC(=O)NC1CCCCC1
→ ., 7%, ., 0.2%
> O=C(/C=C/c1ccco1)Nc1nc(-c2ccccc2)cs1
→ -13%, 0%, -10, 3.0%
> COc1ccccc1C(=O)NCC(=O)OCc1csc(-c2ccccc2)n1
→ -30%, 5%, -6, 4.8%
> CC(=O)c1c(C)[nH]c(C(=O)Nc2ccccn2)c1C
→ -31%, 0%, ., -0.2%
> CCN(CC)C(=O)NC(c1ccc(C)c(F)c1)C(Cl)(Cl)Cl (stereo unspecified)
→ 2%, -12%, -7, -0.6%
> CCCN(CC1CC1)C(=O)COC(=O)c1ccc2c(c1)C(=O)N(c1ccc(OCC)cc1)C2=O
→ -2%, 11%, 5, -1.2%
> N#Cc1ccccc1NC(=O)CSc1ccc([N+](=O)[O-])cn1
→ 0%, -12%, -3, -0.8%
> Fc1cccc(Nc2nc(-c3ccncc3)nc3ccccc23)c1
→ -10%, 1%, -3, -1.8%
> CC(C)CN(C(=O)c1ccc(N2CCCC2=O)cc1)c1c(N)n(Cc2ccccc2)c(=O)[nH]c1=O
→ ., -5%, ., -4.0%

Rewritten in markdown: part of the list above.
| Structure | miR-21 reporter | Rango release inh | GLA inh pH 4.5 | Rango complex inh |
| --- | --- | --- | --- | --- |
| COc1ccc(/C=N/Nc2ncnc3sc4c(c23)CCCC4)cc1OC | -15% | -5% | -4 | 0.3% |
| CCC(C)(C)c1ccc(OCCCC[n+]2cccc(C)c2C)c(C(C)(C)CC)c1 | ? | 8% | -8 | 7.5% |
| COc1cc(OC)cc(C(=O)NC(C)c2ccc(Br)cc2)c1 (stereo unspecified) | 1% | -15% | 6 | 0.7% |
| Cc1cc(N/N=C(/CCC(=O)O)C(=O)O)nc2ccccc12 | -1% | -11% | 0 | -0.4% |
| CC(C)CCOP(=O)(c1ccccc1)c1ccccc1 | -7% | 2% | 2 | 1.1% |
| COCCCn1c(=O)c2ccccc2n(CC(=O)N2CCCc3ccccc32)c1=O | 7% | -17% | . | -0.8% |
| Cn1c(N)c(S(=O)(=O)NCc2ccc(F)cc2)c(=O)n(C)c1=O | 0% | 1% | . | -1.8% |
| O=C(NCC1CCCO1)Nc1cc(Cl)cc(Cl)c1 (stereo unspecified) | -28% | -12% | 3 | 3.2% |
| CCN(CCCNC(=O)c1ccc2c(c1)NC(=O)CN2C)c1cccc(C)c1 | 25% | ? | . | ? |
| Brc1ccc(-c2ncc3ccccn23)cc1 | -62% | 11% | 2 | 1.4% |
| COCCn1c(C)cc(C(=O)COc2nc3ccccc3nc2C)c1C | -3% | -9% | -1 | 1.3% |
| Cn1nc(C(=O)Nc2ccc3c(c2)OCO3)c2ccccc2c1=O | -12% | -1% | . | -4.6% |
| Cc1ccc(S(=O)(=O)N2CCOCC2)cc1C(=O)OCC(=O)NC1CCCCC1 | . | 7% | . | 0.2% |

Later entries:
Under each structure – miR-21 reporter, Rango release inh, GLA inh pH 4.5, Rango complex inh
> Cc1nc2ccccc2c2c1C(=O)N(CCC1=CCCCC1)C2=O
→ -2%, ., 1, .
> CCC(Cc1ccccc1)OC(=O)c1ccccc1C(=O)O (stereo unspecified)
→ ., -9%, ., 0.0%
> COC(=O)C1=C[C@@H](C(=O)OC)[C@@H]2C3=C(C(=O)[C@@]2(C)NC(=O)c2ccccc2)[C@H](c2ccccc2)n2c(=O)n(-c4ccccc4)c(=O)n2[C@@H]3C1
→ ., 14%, ., 1.6%
> CNC(=S)N/N=C(\C)c1ccc(C)c(C)c1
→ -29%, 13%, -1, 3.8%
> Cc1noc(C)c1S(=O)(=O)N(C)C[C@H]1Oc2ccc(NC(=O)C3CC3)cc2C(=O)N([C@H](C)CO)C[C@@H]1C
→ ., 7%, ., 3.0%
> CCCCC1OC23CCCCC2C(C#N)(C#N)C1(C#N)C(=N)O3 (stereo unspecified)
→ -3%, ?, 7, ?
> Cc1ccc(O)c(/C=N/NC(=O)CN2CCCC2)c1
→ 8%, -17%, ., -0.8%
> COc1cc(S(=O)(=O)NCCCN2CCOCC2)ccc1Cl
→ -2%, -8%, 0, -3.2%
> CC1CCC(NC(=O)CN(C)S(=O)(=O)c2ccc3c(c2)c(=O)n(C)c(=O)n3C)CC1 (stereo unspecified)
→ -3%, -1%, ., 0.7%
> Cc1c(C(=O)NCc2ccccn2)oc2ccccc12
→ -58%, 14%, 2, -0.7%
> Cc1ccc(-n2c(C)nnc2SCC(=O)NC2CC2)cc1
→ 0%, -20%, ., 1.5%
> Cc1cc(NC(=O)c2cccc(S(=O)(=O)N3CCCCCC3)c2)n(-c2ccccn2)n1
→ -1%, 9%, -11, -5.7%
> CC(C)[C@H](NC(=O)NCCc1ccccc1)C(=O)O
→ -7%, 1%, -1, -0.5%
> Cc1ccc(NC(=O)NNC(=O)c2cc3ccccc3cc2O)cc1
→ -3%, ?, ., ?
> CN(C(=O)CSc1nc2c(c(=O)[nH]1)CCC2)c1ccccc1
→ 3%, 1%, 2[21.1 µM], 3.9%
> COc1ccc(NC(=O)Cc2nc3ccccc3[nH]2)cc1
→ ?, -2%, 2, -0.4%
> Cn1c(N=Cc2ccc([N+](=O)[O-])cc2)c(N)c(=O)n(C)c1=O
→ ., ?, ., ?
> CCc1nc2ccccc2c(C(=O)O)c1C
→ 2%, -4%, 7, 1.3%
> C=CCOc1ccccc1CNCCCN1CCOCC1
→ -1%, -3%, -2, 2.2%
> Cc1ccc(-c2nc(CS(=O)CC(=O)NCc3ccccn3)c(C)o2)cc1 (stereo unspecified)
→ -2%, 10%, -3, -0.6%
> CN(C)C/C=C/C(=O)Nc1cccc(-c2c[nH]c3ncnc(Oc4ccc(NC(=O)CC(=O)Nc5ccc(F)cc5)cc4F)c23)c1
→ ., -6%, ., 8.3%
> COc1ccc(CC(=O)NNC(=O)c2cccs2)cc1
→ -14%, 14%, 0, 4.4%
> CCCOC(=O)c1ccc(Nc2cc(C)nc3ncnn23)cc1
→ -11%, -13%, -2, 0.0%
> COC(=O)c1ccc(CSc2nc3cc(Cl)ccc3s2)o1
→ -8%, -1%, 1, -0.4%
> S=c1[nH]nc(-c2cccc3ccccc23)n1-c1cccnc1
→ 1%, -3%, -7, 3.2%
> CCCNC(=O)Cn1nc(C)n2c(cc3cc(F)ccc32)c1=O
→ 1%, 14%, ., -3.5%
> Cc1ccc(C(=O)C[n+]2cccc3ccccc32)cc1
→ -9%, ?, 0, ?
> Fc1ccc(C2c3[nH]c4ccccc4c3CCN2Cc2cccn2-c2ncccn2)cc1 (stereo unspecified)
→ 5%, ?, 0, ?
> Cc1cc(Nc2ccccc2F)n2nc(C)nc2n1
→ -17%, 12%, -2, -5.1%
> CC(=O)c1cc(NC(=O)c2ccc([N+](=O)[O-])cc2)c(=O)oc1C
→ 13%, 7%, -9, 0.2%
> CN(CC(=O)NC(=O)NC1CCCCC1)Cc1ccccc1
→ ., 15%, ., -0.6%
> COc1cccc(SCc2noc(C(=O)NCC3CCCO3)c2C(=O)O)c1 (stereo unspecified)
→ -3%, -13%, -4, 0.2%
> Cc1cc(N2C(=O)CC(C(C)c3ccccc3)C2=O)no1 (stereo unspecified)
→ 1%, 1%, -2, -1.6%
> CN(CCOc1ccccc1)CC(=O)Nc1ccc(Cl)c(S(=O)(=O)N(C)C)c1
→ 4%, 0%, -4, 3.2%
> CCOC(=O)C1=C(C)NC(C)=C(C(=O)OCC)C1/C=C/c1ccccc1OC
→ -6%, -12%, -10, ?
> CS(=O)(=O)N1CCc2ccc(NC(=O)C3CCCO3)cc2C1 (stereo unspecified)
→ -6%, 0%, ., -1.4%
> COc1ccc(S(=O)(=O)N(C)C[C@@H]2Oc3c(NS(=O)(=O)c4cn(C)cn4)cccc3C(=O)N([C@@H](C)CO)C[C@@H]2C)cc1
→ ., -17%, ., 2.9%
> O=C(c1ccccc1Br)N1CCN(Cc2ccc3c(c2)OCO3)CC1
→ 9%, 1%, ., -0.9%
> CCOC(=O)c1c(NC(=O)COC(=O)c2nccnc2N)sc2c1CCC2
→ ., -1%, ., 0.2%
> O=C(Nc1ccc(F)cc1)N1CCn2c(nc3ccccc32)C1
→ -11%, -1%, -1, 8.1%
> O=C(NC1CCS(=O)(=O)C1)C1CCCCN1S(=O)(=O)c1ccc(Cl)cc1 (stereo unspecified)
→ -1%, 13%, -20, -0.2%
> COc1ccc(CCNC(=O)c2cc3c(=O)n(C)c4ccccc4c3n2C)c(OC)c1
→ 0%, 33%, -14, -0.6%
